SmPrx2 inh: Schistosoma Mansoni Peroxiredoxins (Prx2); Potency, µM; Schistosoma mansoni peroxiredoxin 2 (Prx2); S. mansoni Prx2 activity coupled to TGR/GSH (TGR is thioredoxin glutathione reductase), NADPH fluorescence loss, qHTS; some inactives read as strong as hits; 65,000 compounds, 0.07% hits; active means full or partial inhibition curve with a strong effect at the top dose; inconclusive means weaker partial or single-point curve; inactive means no accepted curve; note: series up to 57 µM; many of its hits are not listed in these tables
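Enzyme mix: 100 uM NADPH, 25 nM TGR, 700 uM GSH, 50 nM Prx2 in 100 mM phosphate pH 7.4, 10 mM EDTA, 0.01% Tween-20. 15 min RT with compound; NADPH/GSH added, H2O2 starts reaction; NADPH fluorescence read 8 min.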
LT uptake inh: qHTS Assay for Anthrax Lethal Toxin Internalization; Cells, anthrax lethal toxin internalization, FRET ratio (460/530); Potency, µM (series often up to 40 µM), for inactives: at the highest dose activity change, negative = inhibition, actives largely listed as inhibitors; 70,000 compounds, 0.67% hits; active = well fitted falling ratio curve with the 530 nm signal flat; inconclusive = other ratio curves, or a change in one channel alone; inactive = flat curves in the ratio and both channels; the % refers to the ratio; note: % is set by controls: 0 for no effect and ±100 for the full control effect; nearly all actives have a fitted effect of over 50% in size; tested in ME-180 cells; beta-lactamase reporter
Starred values were filed as active, the others as inactive. Potency is the fitted concentration of half-maximal effect. Some of the compounds tested (hit frequency here may not be typical).

`CC(C)(C)OC(=O)N1CCCC1C(=O)NCCc1ccccc1` (centres undefined) gave SmPrx2 inh >57 and LT uptake inh -6%.
CC(C)C[C@@H](CC(=O)N[C@@H](CCCN)CC(=O)N[C@@H]1CCNC[C@H]1C(=O)N[C@H](CC(=O)N[C@@H](CCC(=O)O)CC(=O)O)CC(C)C)NC(=O)[C@@H]1CNCC[C@H]1N was read as SmPrx2 inh >57 and LT uptake inh 4%.
`Cc1noc(/C=C/N(C)C)c1S(=O)(=O)N(C)CC(=O)N1CCc2ccccc21` gave SmPrx2 inh >57 and LT uptake inh -11%.
CCCc1nnc(NC(=O)c2cc(OC)cc(OC)c2)s1 was read as SmPrx2 inh >57 and LT uptake inh 10%.
Screening COc1ccc(C(=O)N2CCN(c3nc4ccccc4o3)CC2)cc1OC returned SmPrx2 inh >57 and LT uptake inh -5%.
COc1ccccc1-c1cc(C(=O)NC(C)C)no1 was read as SmPrx2 inh >57 and LT uptake inh -6%.
For CCOc1ccc(NC(=O)c2cc3n(n2)C(C(F)(F)F)CC(c2ccco2)N3)cc1 (centres undefined) the results were SmPrx2 inh >57 and LT uptake inh -9%.
Cn1c(=O)c2c(nc(CN3CCCCC3)n2Cc2c(F)cccc2Cl)n(C)c1=O was read as SmPrx2 inh >57 and LT uptake inh 10%.
Screening COc1ccc(C=O)cc1 returned LT uptake inh -9%.
For CCOC(=O)c1ccc(N2CN=C3SCC(=O)N3C2)cc1 the results were LT uptake inh 0%.
For CCS(=O)(=O)Nc1ccc(-c2nnc(SCC(=O)c3ccc(NC(C)=O)c(OC)c3)o2)cc1 the results were SmPrx2 inh >57 and LT uptake inh 0%.
CCn1c(SCC(=O)NCc2ccccc2)nc2ccccc2c1=O was read as SmPrx2 inh >57 and LT uptake inh -8%.
O=C1CSC(c2cccnc2)N1C1CCCCC1 (centres undefined) was read as SmPrx2 inh >57 and LT uptake inh -7%.
For COc1cc2cc3c(N)c(C(=O)NCc4ccco4)sc3nc2cc1OC the results were SmPrx2 inh >57 and LT uptake inh -1%.
`CCN(CC)CCOC(=O)c1c(C)oc2ccc(OC)cc12` gave SmPrx2 inh >57 and LT uptake inh inconclusive.
`CC(=O)Nc1ccc(S(=O)(=O)N2CCCc3ccccc32)cc1` gave SmPrx2 inh >57 and LT uptake inh -2%.
For Cc1cc(C)n(C(=O)c2cc3sccc3[nH]2)n1 the results were SmPrx2 inh >57 and LT uptake inh -23%.
For Cc1ccc(C2C(C(=O)c3sc(C)nc3C)=C(O)C(=O)N2CCN(C)C)o1 (centres undefined) the results were SmPrx2 inh >57 and LT uptake inh inconclusive.
For O=C(Cc1ccccc1)Nc1nonc1NC(=O)c1ccccc1 the results were SmPrx2 inh >57 and LT uptake inh 11%.
CCOC(=O)CSc1nc2c(c(=O)n1-c1ccc(OC)cc1)SCC2 was read as SmPrx2 inh >57 and LT uptake inh 12%.

Among those listed so far, these have a halogen.
For CCOc1ccc(NC(=O)c2cc3n(n2)C(C(F)(F)F)CC(c2ccco2)N3)cc1 (centres undefined) the results were SmPrx2 inh >57 and LT uptake inh -9%.
Cn1c(=O)c2c(nc(CN3CCCCC3)n2Cc2c(F)cccc2Cl)n(C)c1=O was read as SmPrx2 inh >57 and LT uptake inh 10%.

Next structures follow.
Cc1noc(C)c1-c1nccc(N2CCN(C)CC2)n1 was read as SmPrx2 inh >57 and LT uptake inh -10%.
Screening O=C(O)Cc1csc2ccccc12 returned SmPrx2 inh >57 and LT uptake inh 8%.
For Cc1ccc(-c2noc(COc3ccccc3C)n2)cc1 the results were SmPrx2 inh >57 and LT uptake inh inconclusive.
For CCOc1ccccc1NS(=O)(=O)c1cccs1 the results were SmPrx2 inh >57 and LT uptake inh -7%.
For Cc1c(/C=N/n2cnnc2)c2ccccc2n1CCOc1ccccc1 the results were LT uptake inh 11%.
`COc1ccc(-c2ccc(=O)n(Cc3cc(=O)n4ccccc4n3)n2)cc1` gave SmPrx2 inh >57 and LT uptake inh 0%.
`O=C(c1cc2c(s1)CCCC2)N1CCC2(CC1)OCCO2` gave SmPrx2 inh >57 and LT uptake inh -5%.
Cn1cc(S(=O)(=O)CC(=O)Nc2ccc3c(c2)OCCO3)c2ccccc21 was read as SmPrx2 inh >57 and LT uptake inh 3%.
`COC(=O)c1ccc(O)c(Sc2cc(C(=O)OC)ccc2O)c1` gave SmPrx2 inh >57 and LT uptake inh -20%.
CCC(C)Nc1nc(SC(C(C)=O)C(C)=O)nc(N(C)C)n1 (centres undefined) was read as SmPrx2 inh >57 and LT uptake inh 15%.
`CCOC(=O)C1=C(C)NC(=O)NC1c1ccc2c(c1)OCCO2` (centres undefined) gave SmPrx2 inh >57 and LT uptake inh 4%.
COc1ccc(C(=O)Oc2c(CN3CCOCC3)cc(Cl)c3cccnc23)cc1OC was read as SmPrx2 inh >57 and LT uptake inh -9%.
`O=C(CSc1ccc(-c2nc3ccccc3[nH]2)cn1)N1CCN(C(=O)c2ccco2)CC1` gave SmPrx2 inh >57 and LT uptake inh inconclusive.
`CCOc1ccc(-n2c(SC(C)C)nc3c(c2=O)SCC3)cc1` gave SmPrx2 inh >57 and LT uptake inh -15%.
`O=C(CSc1nc(Nc2ccccc2)nc(N2CCOCC2)n1)Nc1ccc2c(c1)OCCO2` gave SmPrx2 inh >57 and LT uptake inh -6%.
CCn1c(=O)n(CC)c2cc(S(=O)(=O)Nc3ccccc3C)c(C)cc21 was read as SmPrx2 inh >57 and LT uptake inh 0%.
Screening CCOC(=O)c1nnn(-c2nn3nnnc3c3ccccc23)c1C returned SmPrx2 inh >57 and LT uptake inh -13%.
Screening CC(=O)NCCNc1ncncc1-c1ccc(N(C)C)cc1 returned SmPrx2 inh >11 and LT uptake inh 15%.
Screening CN(CCNC(=O)C1(O)c2ccccc2NC(=O)N1c1ccccc1)Cc1ccccc1 (centres undefined) returned SmPrx2 inh >57 and LT uptake inh 0%.
For c1coc(CNc2ncnc3c2oc2ccccc23)c1 the results were SmPrx2 inh >57 and LT uptake inh 3%.
`COC(=O)c1c(-c2ccccc2)csc1NC(=O)c1ccco1` gave SmPrx2 inh >57 and LT uptake inh -12%.
COCCNC(=O)c1cc2sc3ccccc3c2s1 was read as SmPrx2 inh >57 and LT uptake inh 4%.
O=C(Nc1ccc2sccc2c1)c1ccc(Cl)s1 was read as SmPrx2 inh >57 and LT uptake inh inconclusive.
CSc1nncn1/N=C/c1cc(Cl)ccc1F was read as SmPrx2 inh >57 and LT uptake inh inconclusive.
For Cc1ccnc(NC(=O)CCC(=O)N(CC(=O)NCC2CCCO2)Cc2ccc(F)cc2)c1 (centres undefined) the results were SmPrx2 inh >57 and LT uptake inh 13%.
For CCn1cc(S(=O)(=O)CC(=O)NC2CCCCC2)c2ccccc21 the results were SmPrx2 inh >57 and LT uptake inh 8%.
Screening c1cncc(-c2nn3c(Cn4nnc5ccccc54)nnc3s2)c1 returned SmPrx2 inh >57 and LT uptake inh -14%.
Screening COc1ccc(-c2noc(CSc3nc4ccccc4c(=O)n3-c3ccccc3)n2)cc1OC returned SmPrx2 inh >57 and LT uptake inh -9%.
Screening O=C(CN1CCN(c2ccc(F)cc2)CC1)Nc1ccc(-n2cnnn2)cc1 returned SmPrx2 inh >57 and LT uptake inh 7%.
`C/C(=N\O)C1/C(=N/O)CC2C1C2(C)C` (centres undefined) gave SmPrx2 inh >57 and LT uptake inh -2%.
For CCCOc1ccc(NC(N)=O)cc1OCCC the results were SmPrx2 inh >57 and LT uptake inh 10%.
For CC(C)c1nccn1S(=O)(=O)c1cc(Cl)ccc1Cl the results were LT uptake inh -2%.
For COCCNC(=O)c1cc(-c2ccc(Cl)c(Cl)c2)on1 the results were SmPrx2 inh >57 and LT uptake inh 0%.
CCSCCNC(=O)c1cncc(Br)c1 was read as SmPrx2 inh >57 and LT uptake inh -9%.
Screening c1ccc(N2CCN(Cc3ccsc3)CC2)nc1 returned LT uptake inh -10%.
CC(=O)CCc1oc2ccc(NC(C)=O)cc2c1-c1ccc(C)o1 was read as SmPrx2 inh >57 and LT uptake inh -18%.
`CCOC(=O)C1=C(C)N(c2ccccc2)C(=O)C1CC(=O)O` (centres undefined) gave SmPrx2 inh >57 and LT uptake inh 0%.
`O=S(=O)(NCCCO)c1ccc2c(c1)Cc1cc(S(=O)(=O)NCCCO)ccc1-2` gave SmPrx2 inh >57 and LT uptake inh -4%.
For O=C(O)CCC(NS(=O)(=O)c1ccc(N2CCCC2=O)cc1)C(=O)O (centres undefined) the results were SmPrx2 inh >57 and LT uptake inh inconclusive.
Screening COc1ccc(S(=O)(=O)Nc2cc(Cl)ccc2OC)cc1 returned SmPrx2 inh >57 and LT uptake inh inconclusive.

Ordered by heavy-atom count (rising): six of the compounds above.
`C/C(=N\O)C1/C(=N/O)CC2C1C2(C)C` (centres undefined) gave SmPrx2 inh >57 and LT uptake inh -2%.
CCSCCNC(=O)c1cncc(Br)c1 was read as SmPrx2 inh >57 and LT uptake inh -9%.
For COCCNC(=O)c1cc(-c2ccc(Cl)c(Cl)c2)on1 the results were SmPrx2 inh >57 and LT uptake inh 0%.
`CCOC(=O)C1=C(C)N(c2ccccc2)C(=O)C1CC(=O)O` (centres undefined) gave SmPrx2 inh >57 and LT uptake inh 0%.
Screening O=C(CN1CCN(c2ccc(F)cc2)CC1)Nc1ccc(-n2cnnn2)cc1 returned SmPrx2 inh >57 and LT uptake inh 7%.
For Cc1ccnc(NC(=O)CCC(=O)N(CC(=O)NCC2CCCO2)Cc2ccc(F)cc2)c1 (centres undefined) the results were SmPrx2 inh >57 and LT uptake inh 13%.

(more compounds)
Screening CC(NS(=O)(=O)c1ccc(CCC(=O)N2CCN(C)CC2)cc1)c1ccccc1 (centres undefined) returned SmPrx2 inh >57 and LT uptake inh -3%.
For O=C(c1ccc(=O)n(Cc2ccccc2)n1)N1CCN(C/C=C/c2ccccc2)CC1 the results were SmPrx2 inh >57 and LT uptake inh 5%.
Screening COc1ccc(N2C(=NC(C)=O)SC3CS(=O)(=O)CC32)cc1OC (centres undefined) returned SmPrx2 inh >57 and LT uptake inh inconclusive.
Screening Oc1ccccc1-c1cc(C(F)(F)C(F)F)[nH]n1 returned LT uptake inh inconclusive.
For OCCN1CN=C(Nc2nc3ccccc3o2)NC1 the results were SmPrx2 inh >57 and LT uptake inh inconclusive.
For Cc1cc(C)cc(N2CCN(C(=O)N3CCOCC3)CC2)c1 the results were SmPrx2 inh >57 and LT uptake inh -11%.
For CC1CCCN(S(=O)(=O)c2ccc(NC(=O)c3cccc(-n4cnnn4)c3)cc2)C1 (centres undefined) the results were SmPrx2 inh >57 and LT uptake inh inconclusive.
For CCOC(=O)N1CCN(C(=O)C2CC(c3ccccc3OC)=NO2)CC1 (centres undefined) the results were LT uptake inh 20%.
CCN=C(NCC)SC1CC(=O)N(c2ccccc2)C1=O (centres undefined) was read as LT uptake inh -10%.
`COCC(=O)Nc1nc2ccc(S(C)(=O)=O)cc2s1` gave SmPrx2 inh inconclusive and LT uptake inh 5%.
For CCOc1ccc2nc(Nc3nc4c(c(=O)[nH]3)CCC4)nc(C)c2c1 the results were SmPrx2 inh >57 and LT uptake inh -11%.
C[N+](C)(C)/N=C\c1ccc(O)c(O)c1 was read as SmPrx2 inh >57 and LT uptake inh inconclusive.
For Cc1cccc(CNc2cc(-c3ccccc3CN(C)C)ncn2)c1 the results were SmPrx2 inh >57 and LT uptake inh -8%.
C/C=C/Cn1c(N(C)Cc2ccccc2)nc2c1c(=O)[nH]c(=O)n2C was read as SmPrx2 inh >57 and LT uptake inh 9%.
For COc1ccc2[nH]cc(C(O)CN3CCN(c4ccccc4)CC3)c2c1 (centres undefined) the results were SmPrx2 inh >57 and LT uptake inh inconclusive.
Screening Cc1ccccc1-c1ccc2ncnc(N(C)Cc3ccco3)c2c1 returned SmPrx2 inh >57 and LT uptake inh inconclusive.
Screening O=C1N2c3ccccc3CCc3cccc(c32)C1(O)C(F)(F)F (centres undefined) returned SmPrx2 inh >57 and LT uptake inh inconclusive.
For O=C(CN1CCN(c2ccccc2F)CC1)c1ccc2cc[nH]c2c1 the results were SmPrx2 inh >57 and LT uptake inh -4%.
CC(C)CN(CC(C)C)S(=O)(=O)N1CCC(C(=O)NCCN2CCOCC2)CC1 was read as SmPrx2 inh >57 and LT uptake inh 8%.
For N#CCc1nc(CSc2nc3ccccc3o2)cs1 the results were SmPrx2 inh >57 and LT uptake inh 1%.
Screening C=CCn1c(O)c(C(C)=NCc2cc(OC)cc(OC)c2)c(=O)[nH]c1=O returned SmPrx2 inh >57 and LT uptake inh 7%.
`O=C1CCCN1CCCN1C(=O)N[C@@H](Cc2ccccc2)C1=O` gave SmPrx2 inh >57 and LT uptake inh -2%.
CCn1c(SCC(=O)NCCOc2ccccc2)nc2ccccc2c1=O was read as LT uptake inh -9%.
For CCC1(CC)C(=O)C(C)(C)C(=O)OC1c1cccs1 (centres undefined) the results were SmPrx2 inh >57 and LT uptake inh 3%.
For N#C/C(=C(/O)CN1C(=O)c2ccccc2C1=O)c1nc2ccccc2[nH]1 the results were LT uptake inh 7%.
COc1ccc(CCNc2ncnc3nc[nH]c23)cc1OC was read as SmPrx2 inh >57 and LT uptake inh -2%.
`O=C(c1ccccc1Cl)N1CCN(c2ccccn2)CC1` gave SmPrx2 inh >57 and LT uptake inh 23%.
Cn1c(CNc2ccc(Cl)cc2)nnc1SCc1ccccc1 was read as SmPrx2 inh >57 and LT uptake inh -1%.
